High-throughput results: PubChem, several laboratories
Rce1 inh: yeast Rce1p protease inhibitors, primary screen, biochemical, fluorescence, cell-free homogeneous; yeast membranes, quenched prenylated peptide cleavage fluorescence; calls only; hit rate 0.27% among 290,000; AID 2563, 2010;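 active means fall in fluorescence gain of 50% or more versus controls, with final raw signal at or below 3038400; inconclusive means same 50% fall but final raw signal above 3038400; inactive means fall in fluorescence gain under 50%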;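 further: plate controls were neutral control wells for no effect and wells lacking membranes for full effect; tested at 10 µM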
Target sequence (Q03530 whole entry, looked up): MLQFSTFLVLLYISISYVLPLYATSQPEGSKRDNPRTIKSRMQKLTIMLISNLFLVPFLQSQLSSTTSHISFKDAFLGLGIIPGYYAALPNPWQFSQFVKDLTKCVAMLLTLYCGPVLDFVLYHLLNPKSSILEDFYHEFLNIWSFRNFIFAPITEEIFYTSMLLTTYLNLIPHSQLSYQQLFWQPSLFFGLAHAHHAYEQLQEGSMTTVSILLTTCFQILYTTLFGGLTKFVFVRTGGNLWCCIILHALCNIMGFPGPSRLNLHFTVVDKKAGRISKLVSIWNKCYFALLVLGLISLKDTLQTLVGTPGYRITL
CSC inhib: cancer stem cell viability inhibitors, primary screen, luminescence | inhibition, % at 7.5 µM | AID 2717, 2010 | hit rate 1.1% among 300,000 | cancer stem cell-like cells viability;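 active means mean at 75% or more and at least half the replicates too; inconclusive means mean and replicates disagree; tested in HMLE shEcad cells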;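 further: 0% = median of negative and 100% = median of positive control wells; the first replicate is given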
eIF4H inh: human eIF4H binding inhibitors, primary screen, translation initiation inhibitor project, biochemical, uHTS, fluorescence polarization; Eukaryotic translation initiation factor 4H (Homo sapiens), Q15056; eIF4H fluorescence polarization binding assay; inhibition, % at 35 µM; hit rate 0.94% among 290,000;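 active means 50% or more with normal probe brightness, or confirmed in later tests; inconclusive means above 50% with abnormal brightness, or retests that disagree; inactive means below 50% or failed in later tests; about a fifth of its hits are not listed in these tables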;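 further: calls also rest on retests at 20 µM and on dose response follow-up; 0% = protein and probe with vehicle and 100% = probe without protein; strong numbers were not always called active; many hits fall short of the cut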
MT1-MMP act inh: blockers of MT1-MMP proenzyme processing, primary screen, HT1080 RFP-PRO-GFP cells, GFP/RFP fluorescence; Matrix metalloproteinase-14 (Homo sapiens), P50281; GFP/RFP ratio fluorescence, overnight; percent of plate control window, DMSO zero; GFP/RFP ratio change, % at 20 µM; hit rate 0.061% among 360,000;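 active means GFP/RFP ratio change of at least 30% with cell ATP level not reduced by more than half and red fluorescence within 50% of control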; further: strong numbers were not always called active
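Test system: HT1080 cells expressing an RFP-PRO-GFP fluorescent reporter construct / Compound dosing: single-point 20 µM compound, 1% DMSO / Schedule: cells overnight before dosing, compound overnight, 37 °C, 5% CO2 / Evaluation: GFP/RFP fluorescence ratio / Control set: DMSO and RFP-L50D-GFP cell wells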
UUG fidelity: modulators of yeast start codon fidelity, primary screen, whole organism, S. cerevisiae, single point, plate reader. S. cerevisiae UUG-firefly luciferase reporter, luminescence/redox ratio. hit rate 0.13% among 350,000. AID 602363, 2012. activity score, % at 18.7 µM;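 active means replicate mean at a twofold rise or more, about +100% in these data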;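 further: firefly luciferase made from a UUG start codon reports start codon fidelity; reporter light over untreated wells divided by growth signal over untreated wells; some hits fall short of that in this replicate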
PABP polyA inh: PABP poly(A) RNA binding inhibitors, primary screen, biochemical, fluorescence polarization, uHTS; Polyadenylate-binding protein 1 (Homo sapiens), P11940; inhibition, % at 35 µM; hit rate 1% among 290,000;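 active means 50% or more with normal probe brightness, or confirmed in later tests; inconclusive means above 50% with abnormal brightness, or retests that disagree; inactive means below 50% or failed in later tests; about a fifth of its hits are not listed in these tables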;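 further: calls also rest on retests at 20 µM and on dose response follow-up; controls were probe without protein and protein plus probe with vehicle; some compounds called inactive have numbers as strong as hits; many hits fall short of the cut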
HIV Env fusion: inhibitors of HIV-1 Env-driven cell-cell fusion, primary screen, HeLa-JRFL effector, CEM21 target cells, luciferase; inhibition, % at 12.3 µM; hit rate 1.1% among 360,000; AID 651610, 2012;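 active means mean replicate inhibition score of at least 50 and every replicate individually at or above 50; inconclusive means only one of the two criteria met; inactive means mean below 50 and not all replicates reaching 50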;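 further: 0% = plate neutral controls and 100% = maraviroc near 300 nM; one replicate is shown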
PABP polyA inh retest: second read-out of PABP polyA inh, no call of its own (marks repeat the call); inhibition, %; compound at 20 µM; confirmation repeats;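 mean of two retest wells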
MT1-MMP act inh RFP: recorded beside MT1-MMP act inh, whose call it bears; RFP signal change, %; measured here: RFP expression control read;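 0 = vehicle wells; hits needed this value within 50% of zero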
* marks the source's active call; other numbers are inactive results; i = inactive; ? = inconclusive; · = not tested or not shown. Not all compounds are listed. The share of hits here may be higher or lower than overall.

SMILES | Rce1 inh | CSC inhib | eIF4H inh | MT1-MMP act inh | MT1-MMP act inh RFP | UUG fidelity | PABP polyA inh | HIV Env fusion | others
O=C(CSc1nc2c(oc3ccccc32)c(=O)n1CC1CCCO1)NCc1ccccc1 (stereo not drawn) | i | -7 | · | -2 | -2 | -14 | · | 13
Cc1onc(-c2c(F)cccc2Cl)c1C(=O)c1ccccc1O | i | 16 | 1 | 2 | -6 | 1 | -4 | 1
Cc1cccc(C(C)C)c1NC(=O)CSc1nncn1C | i | -4 | -2 | 4 | -1 | -6 | 6 | ·
CC(NS(=O)(=O)c1ccc2ccccc2c1)c1ccccn1 (stereo not drawn) | · | -17 | · | 1 | 3 | -16 | · | 12
Cc1cccc(OCc2nnc(SCC(=O)N3c4ccccc4Sc4ccc(Cl)cc43)o2)c1 | i | · | -11 | -5 | -12 | · | -6 | 32
CCn1c(SCC(=O)N/N=C/c2cc(OC)c(OC)c(OC)c2)nc2ccccc21 | i | -10 | 3 | -1 | -5 | · | -2 | -7
O=C(NNS(=O)(=O)c1ccc(F)cc1)c1ccccc1F | i | 1 | -7 | -2 | 1 | -15 | -5 | 2
CCc1ccccc1NC(=O)CNC(=O)c1cccc(S(=O)(=O)N2CCN(Cc3ccccc3)CC2)c1 | i | · | · | 2 | -9 | 1 | · | 1
CC1Cc2ccccc2N1C(=O)c1ccc2snnc2c1 (stereo not drawn) | · | -1 | -4 | -3 | -1 | -9 | -4 | ·
CCNc1nc(NCC)n2c(SCC(=O)c3ccc(C(C)C)cc3)nnc2n1 | i | 21 | -10 | -5 | -7 | · | 16 | 30
Cc1ccc(C)c(OCCC(=O)NNC(=O)c2ccncc2)c1 | i | 1 | · | -3 | 2 | -18 | · | -38
Cc1ccsc1C(=O)N(c1nc2ccccc2s1)c1c(C)cccc1C | i | 17 | 10 | 2 | -1 | · | 7 | 27
Cc1ccc(S(=O)(=O)Cc2ccc(C(=O)N3CCN(c4ccccn4)CC3)o2)cc1 | i | 0 | 14 | -1 | -1 | 0 | 3 | 10
COc1ccc(NC(=O)C2(C)CCCN2C(=O)C(C)C)cc1OC (stereo not drawn) | · | · | · | 2 | 4 | -16 | · | -15
Cc1ccc(S(=O)(=O)Nc2cc(C(=O)O)ccc2N2CCCCC2)cc1 | i | -8 | -2 | 3 | -1 | · | 6 | ·
O=Nc1c2nc3ccccc3n(O)c-2c2ccccc12 | i | 19 | -5 | 5 | 2 | -10 | 9 | -287
NCCc1nnc(SCC(N)=O)o1 | i | 17 | 0 | -3 | 3 | 1 | 6 | -21
Cc1c(C(C)C)c(=O)n(-c2ccc(S(=O)(=O)NCc3ccccc3)cc2)n1C | i | 0 | -1 | 6 | -24 | · | ? | 53
COc1ccc(CNCC(O)COc2cccc3c2OC(C)(C)C3)cc1 (stereo not drawn) | i | -8 | 2 | -2 | -7 | -6 | 2 | 14
Cc1onc(-c2c(Cl)cccc2Cl)c1C(=O)N=S(C)(=O)c1ccccc1 (stereo not drawn) | i | -4 | 8 | -2 | -1 | -13 | -3 | 16
COc1cc(C(=O)OCc2cccc(OC)c2OC)ccc1OCC(=O)N1CCOCC1 | · | -11 | · | 2 | 4 | -2 | · | -3
COc1cc(NC(=O)CCCC(=O)OCC(F)(F)C(F)F)nc(OC)n1 | i | · | 23 | 2 | 1 | -8 | 21 | ·
CCOc1ccc(/C=C(\C#N)C(=O)c2c(C)[nH]c3ccccc23)cc1OC | i | 2 | -2 | 0 | -1 | -13 | 2 | 7
CC1CCCCN1S(=O)(=O)c1coc(C(N)=O)c1 (stereo not drawn) | i | -3 | -8 | 6 | 6 | -20 | -7 | -2
O=C1CC[C@@H](C(=O)N2CSC[C@@H]2C(=O)Nc2ccc(C(F)(F)F)cc2)N1 | · | · | · | 8 | 0 | -2 | · | -76
The listing continues:
SMILES | Rce1 inh | CSC inhib | eIF4H inh | MT1-MMP act inh | MT1-MMP act inh RFP | UUG fidelity | PABP polyA inh | HIV Env fusion | others
c1ccc(CC2CCN(c3nc4ccccc4n4cnnc34)CC2)cc1 | i | -11 | -2 | 1 | -5 | · | 10 | ·
Cc1nnc(N2CCCC(C(=O)Nc3cc(F)ccc3F)C2)c2nn(-c3ccccc3)c(C)c12 (stereo not drawn) | i | 30 | -10 | -5 | -4 | 3 | -5 | ·
CN(C(=O)COC(=O)c1cccnc1Cl)C1CCCCC1 | · | -18 | · | -1 | 4 | 6 | · | ·
Cc1ccc(CNC(=O)c2cccc3c2C(=O)c2ccc(N4CCC(C)CC4)cc2S3(=O)=O)cc1 | · | 19 | · | -98 | -5 | -32 | · | -31
COc1ccc(-c2[nH]ncc2-c2csc(C)n2)c(O)c1 | i | -21 | 0 | -3 | -2 | -10 | -7 | 13
O=C(CNCC1CCCO1)N1CCN(S(=O)(=O)c2ccc3ccccc3c2)CC1 (stereo not drawn) | i | -8 | 7 | 8 | 3 | -3 | 3 | -49
CN(C)/C=C(\C#N)S(=O)(=O)c1ccccc1 | i | -6 | -2 | -3 | -2 | -15 | -1 | 7
CCOc1ccc(C(=O)N[C@H](C(=O)Nc2cccc(S(=O)(=O)N3CCOCC3)c2)C(C)C)cc1 | · | · | · | -65 | -42 | -9 | · | -17
O=C(Cn1ncc(Cl)c(Cl)c1=O)NC(=O)NC1CCCCC1 | · | ? | · | -7 | -24 | · | · | 61*
CC1Cc2cc(/C=C3/SC(=S)N(C)C3=O)ccc2O1 (stereo not drawn) | i | 27 | 1 | 1 | -5 | -20 | -7 | 2
Cc1noc(/C=C/N(C)C)c1S(=O)(=O)N1CCCC(C(=O)NCc2ccco2)C1 (stereo not drawn) | i | 10 | -2 | -3 | 5 | 5 | -2 | 18
CCOc1ccc(NC(=O)CCN2CCN(c3ccccc3)CC2)cc1 | i | -2 | -4 | 2 | 4 | -12 | -6 | 5
S=c1[nH]nc(-c2ccccc2Cl)n1CC1CCCO1 (stereo not drawn) | i | -2 | -8 | -4 | 4 | -29 | -2 | ·
COc1ccc(-c2nc(N)nc(C)c2-c2ccc(Cl)cc2)c(O)c1 | i | -8 | -9 | -3 | -3 | -16 | 1 | 9
N#Cc1cc(-c2ccccc2)oc1/N=C/c1ccccc1O | i | · | 2 | -3 | 10 | -4 | 6 | -1
NC(=O)CC(NC(=O)c1ccc(Br)cc1)c1ccc(N2CCN(c3ccccn3)CC2)c([N+](=O)[O-])c1 (stereo not drawn) | i | -5 | -1 | 6 | -8 | 37 | 7 | 4
CCn1cc(CN2CCC(n3nccc3NC(=O)C3CCCC3)CC2)cn1 | i | 10 | -10 | 0 | -1 | -11 | 2 | -5
CCOC(=O)c1ccc(NC(=O)CSc2nnc(C)n2-c2ccccc2)cc1 | i | 3 | -3 | -4 | -4 | -13 | -3 | ·
Nc1nnn(CC(=O)N/N=C/c2ccco2)n1 | i | -3 | 0 | -1 | 3 | -11 | 0 | 3
O=C1CCN(C(=O)Nc2ccccc2)N1 | i | -15 | -6 | -2 | 5 | -23 | -5 | -40
Cc1ccc(-n2ncc3c2CCCC3NC(=O)CCN2CCCC2=O)cc1C (stereo not drawn) | i | -8 | · | 3 | -5 | -8 | · | 0
COc1ccc(NC(=O)NCCN2CCN(c3cc(OC)ccc3OC)CC2)cc1 | i | -11 | -1 | 2 | 2 | -9 | 5 | -21
O=[N+]([O-])c1ccccc1OCCNCc1ccccc1 | i | -11 | 5 | 5 | 1 | -19 | -3 | -13
CCc1nn(C)c(N)c1C | i | -14 | -17 | 1 | 3 | -19 | -14 | 13
COC(=O)C1=C(C)NC(C)=C(C(=O)OC)C1c1cc2ccc(C)cc2[nH]c1=O | i | -2 | 3 | 3 | 3 | -4 | 0 | -1

Next part, overlapping the part above by two compounds.
SMILES | Rce1 inh | CSC inhib | eIF4H inh | MT1-MMP act inh | MT1-MMP act inh RFP | UUG fidelity | PABP polyA inh | HIV Env fusion | others
CCc1nn(C)c(N)c1C | i | -14 | -17 | 1 | 3 | -19 | -14 | 13
COC(=O)C1=C(C)NC(C)=C(C(=O)OC)C1c1cc2ccc(C)cc2[nH]c1=O | i | -2 | 3 | 3 | 3 | -4 | 0 | -1
Cc1oc(-c2ccc(Cl)cc2)nc1CN1CCCC(C(=O)NCc2ccco2)C1 (stereo not drawn) | i | -7 | -3 | 8 | -6 | 27 | -10 | 28
COc1ccc(S(=O)(=O)N2CCC(C(=O)NCCc3ccc(OC)c(OC)c3)CC2)cc1 | · | · | · | 6 | -6 | -3 | · | -13
O=C(CN1CCNCC1)NCCSc1ccc(Cl)cc1 | · | · | ? | 4 | 8 | · | -26 | -1 | PABP polyA inh retest=42
O=C(N/N=C/C(Br)=C/c1ccccc1)c1cc(-c2ccco2)[nH]n1 | i | 66 | 12 | 11 | 7 | · | 7 | -72
COc1ccccc1NS(=O)(=O)c1ccc(NN=C2CCCC2)c([N+](=O)[O-])c1 | i | 23 | 4 | 2 | -15 | · | -13 | 42
CC(C)OC(=O)c1nnc(Cc2ccc(Cl)cc2)o1 | i | 2 | -4 | 8 | 5 | -11 | -3 | 11
CN(C)c1ccc(/C=C2\c3ccccc3C(=O)N2c2ccccc2)cn1 | · | · | · | -11 | -4 | -10 | · | -6
CCCCN1CCCCC1C(=O)Nc1c(C)cc(C)cc1C (stereo not drawn) | i | -6 | 0 | -4 | 0 | -11 | 0 | -97
CCn1cc(C(=O)N2CCN(c3ccccn3)CC2)c(=O)c2cc(S(=O)(=O)N(C)C3CCCCC3)ccc21 | i | -6 | 1 | 1 | -4 | · | 5 | -3
Cc1ccc(-c2nnc(SCC(=O)Nc3ccc(N4CCOCC4)cc3)o2)cc1 | i | -18 | -2 | 1 | 0 | -10 | 10 | ·
O=C(NCCc1ccccc1)c1c(O)c2cccc3c2n(c1=O)CC3 | i | -2 | -4 | 3 | 4 | · | 2 | ·
O=C(NNC(=S)NC(=O)c1cccs1)c1ccc(NC(=O)c2ccccc2)cc1 | i | 11 | 14 | -5 | -8 | · | 0 | 51
CCOC(=O)c1ccc(N2Cc3ccccc3C2=N)cc1 | i | -8 | 33 | -11 | -4 | -21 | 27 | -47
COCC1CCCCN1C(=O)C1CCN(c2nc(-c3ccccc3)nc3c2CCC3)CC1 (stereo not drawn) | i | -13 | · | -6 | -6 | 15 | · | 8

Of the compounds above, these have two or more sulfur atoms.
SMILES | Rce1 inh | CSC inhib | eIF4H inh | MT1-MMP act inh | MT1-MMP act inh RFP | UUG fidelity | PABP polyA inh | HIV Env fusion | others
Cc1cccc(OCc2nnc(SCC(=O)N3c4ccccc4Sc4ccc(Cl)cc43)o2)c1 | i | · | -11 | -5 | -12 | · | -6 | 32
Cc1ccsc1C(=O)N(c1nc2ccccc2s1)c1c(C)cccc1C | i | 17 | 10 | 2 | -1 | · | 7 | 27
CC1Cc2cc(/C=C3/SC(=S)N(C)C3=O)ccc2O1 (stereo not drawn) | i | 27 | 1 | 1 | -5 | -20 | -7 | 2
O=C(NNC(=S)NC(=O)c1cccs1)c1ccc(NC(=O)c2ccccc2)cc1 | i | 11 | 14 | -5 | -8 | · | 0 | 51
